ClpP mod = qHTS Assay for Activators of ClpP; ATP-dependent Clp protease proteolytic subunit (Bacillus subtilis (strain 168)), P80244; actives 1.9% (n = 340,000); AID 651965, 2013; purified B. subtilis ClpP, FRET peptide cleavage, 20 min; Potency, µM (doses to about 57.5 µM), inactives show at the highest dose activity change, negative = active; active = well fitted falling curve with a large enough effect; inconclusive = small, poorly fitted or top-dose-only effect; inactive = no such curve, though single readings can be large or run the other way; further: the source files actives as falling curves though it sought activators and does not explain the sign; nearly all actives have a fitted effect of over 65% in size; many hits overshoot -100%
Target sequence (P80244 whole entry, looked up): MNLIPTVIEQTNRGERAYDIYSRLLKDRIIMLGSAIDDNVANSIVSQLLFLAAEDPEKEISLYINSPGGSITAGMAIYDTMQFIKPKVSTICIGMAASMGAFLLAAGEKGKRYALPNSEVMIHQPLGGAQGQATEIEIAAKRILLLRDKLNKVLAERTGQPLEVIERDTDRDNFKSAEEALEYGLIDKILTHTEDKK
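Buffer: 100 mM Tris/HCl pH8, 100 mM KCl, 0.05% low protease BSA, 2.5% glycerol, 0.01% Tween-20. ClpP 10 microg/mL final; 20 min RT; delta FRET normalized to ADEP and DMSO controls.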
* marks the source's active call; other numbers are inactive results; u = inconclusive. Potency means the concentration at half of the fitted maximal effect.

SMILES,ClpP mod
Cc1cccc(C)c1NC(=O)C1(C)CSCC(=O)N1C1CCN(Cc2ccccc2)CC1 (centres undefined),-1.2%
O=C(C1CC1)N1CCc2cc(Br)cc(S(=O)(=O)Nc3ccc(C(F)(F)F)cc3)c21,0.6%
Cc1ccc(Cl)cc1N1CCN(C(=O)c2cccn2-c2nnc(N3CCCC3)s2)CC1,-1.4%
CCOC(=O)c1cc(-c2ccccc2)n(CC(=O)Nc2ccc(CC)cc2)c1C,-3.2%
CCOCCCNC(=O)c1ccc2nc(CCc3ccccc3)oc2c1,-9.5%
Cc1nnsc1C(=O)Oc1ccc(C#N)cc1,-0.6%
CCC(=O)N1CCc2cc(Br)cc(S(=O)(=O)CCC(=O)Nc3ccccc3C)c21,-0.7%
O=C1NC[C@H](CCCCN2CCN(CCc3ccccc3)C(=O)C2=O)N(Cc2ccccc2)C1=O,2.0%
Cc1cccc(CNC(=O)Cn2nc(C)c3nn(-c4ccc(Cl)cc4)c(C)c3c2=O)c1,-3.6%
COc1ccc(C(=O)c2oc3ccccc3c2NC(=O)c2cccc(OC)c2)cc1,-9.4%
CCCN(CCC)C(=O)CSc1nnc2cc(C)c3ccccc3n12,-3.8%
O=C(C1CC1)N1CCc2cc(Br)cc(S(=O)(=O)N3CCN(c4cccc(C(F)(F)F)c4)CC3)c21,0.2%
COC(=O)c1cc2occc2n1Cc1nc(-c2ccccc2)oc1C,-1.1%
COc1cccc(NC(=O)CSc2nnc(COc3ccc(Cl)cc3)o2)c1,-0.5%
COc1ccc(OC)c(NC(=O)Cc2coc3ccc(C(C)C)cc23)c1,-4.5%
COc1cc(OC)c(NC(=O)C(C)n2nc(-c3ccc(C)c(C)c3)ccc2=O)cc1Cl (centres undefined),-1.2%
CC(C)CN(CCNC(=O)c1cn(C)c2ccc(S(=O)(=O)N3CCOCC3)cc2c1=O)CC(C)C,2.3%
COc1ccccc1NC(=O)c1cc2c([nH]c1=O)CC(C)(C)CC2=O,u
COc1ccc(CNC(=O)Cc2csc3nc(-c4ccc(C)cc4)cn23)cc1,-2.7%
COc1ccc(-c2nc(Cn3c(SCc4cccc(C(F)(F)F)c4)nc4cccnc43)c(C)o2)cc1OC,u
O=S(=O)(c1ccccc1Br)N1CCN(c2nc(-c3cccs3)nc3ccccc23)CC1,-18.9%
Cc1ccc2oc(-c3cc(NC(=O)/C=C/c4ccco4)ccc3Cl)nc2c1,u
Nc1sccc1C(=O)N1CCN(c2ccccc2)CC1,0.5%
Cc1cccc(C)c1NC(=O)CCCn1c(=O)c2cccn2c2ccccc21,-14.2%
COc1ccc(NC(=O)CSc2nnc(NC(=O)Nc3ccccc3)s2)c(OC)c1,0.5%
CCOc1ccc(NC(=O)c2ccc(CN3C(=O)C(C)=C(c4ccc(C)cc4)S3(=O)=O)cc2)cc1,-0.3%
CCOc1ccc(C(=O)NCCc2csc(-c3ccc(C(F)(F)F)cc3)n2)cc1OCC,-3.7%
CC(C)(C)NC(=O)C1C(c2ccc(C(F)(F)F)cc2)=Nc2ccccc2N1C(=O)c1cccc(C(F)(F)F)c1 (centres undefined),-7.6%
COc1ccc(CC(=O)NCc2ccc3c(c2)CCN3C(C)=O)cc1,-1.4%
C[C@@H]1COc2cccc(N3CCC[C@@H]3CO)c2S(=O)(=O)N1,0.5%
CCc1cccc(CC)c1NC(=O)CCS(=O)(=O)c1ccc(Br)cc1,-1.6%
O/N=C(/C[n+]1csc2ccccc21)c1ccccc1,2.0%
O=C(c1ccccc1Cl)N1c2ncnn2C2(CCCCC2)[C@@H]2CCCC[C@@H]21,-2.2%
Cc1ccc(CSc2nc3cccnc3n2Cc2ccc(C(=O)NCCc3ccccc3)cc2)cc1,u
COc1ccc(-c2nc3c(C#N)c[nH]n3c2NC2CCCCC2)cc1,1.7%
Cc1ccc(NC(=O)Cn2c(=O)n(CCC(=O)N3CCc4ccccc4C3)c(=O)c3ccccc32)cc1,-2.9%

A run of entries from further up, as a working copy:
SMILES,ClpP mod
O=C(c1ccccc1Cl)N1c2ncnn2C2(CCCCC2)[C@@H]2CCCC[C@@H]21,-2.2%
Cc1ccc(CSc2nc3cccnc3n2Cc2ccc(C(=O)NCCc3ccccc3)cc2)cc1,u
COc1ccc(-c2nc3c(C#N)c[nH]n3c2NC2CCCCC2)cc1,1.7%
Cc1ccc(NC(=O)Cn2c(=O)n(CCC(=O)N3CCc4ccccc4C3)c(=O)c3ccccc32)cc1,-2.9%

(further entries)
SMILES,ClpP mod
CCCCCSc1nc2sc3c(c2c(=O)n1-c1ccc(OC)cc1)CCN(C(C)=O)C3,-7.9%
COc1ccc(CCNc2nc(SCc3cccc(Cl)c3)nc3ccccc23)cc1OC,-0.6%
COC(=O)c1c(C)oc2ccc(N(C(=O)Oc3ccccc3)S(=O)(=O)c3ccc(C(C)(C)C)cc3)cc12,0.5%
CCOc1c(CNCCSc2nnnn2C)cccc1OC,-0.2%
Cc1nn(C(C)C(=O)NCc2cccc(F)c2)c(=O)c2c1sc1ccccc12 (centres undefined),-11.7%
CC(C)=CCC[C@H](C)C[C@@H]1Cc2[nH]c(=S)[nH]c(=O)c2[C@@H](c2ccc(F)cc2)O1,2.9%
CC(=O)N1c2ccc(S(=O)(=O)NCCc3cccc(C)c3)cc2CC1C (centres undefined),-1.0%
O=C1Nc2ccccc2C(=O)N(c2ccc3c(c2)OCCO3)C1C(=O)NC1CC1 (centres undefined),-0.5%
Cc1cccc(N2CCN(C(=O)c3c(C)oc4ncnc(N5CCCCC5)c34)CC2)c1C,0.8%
COc1ccc(-c2cc(-c3ccccc3)nc3c2COc2ccc(F)cc2-3)cc1,u
Cc1ccc(NS(=O)(=O)c2ccc3nc(-c4ccccc4)[nH]c3c2)c(Br)c1,0.9%
O=S(=O)(NCc1cccc(Br)c1)c1ccc(-c2cc(C(F)(F)F)on2)s1,1.1%
FC(F)(F)c1cccc(N2CCN(c3ncnc4c3nc3n4CCCC3)CC2)c1,-2.6%
Cc1cccc(NC(=O)c2ccc(Cn3nc(N4CCN(c5ccccc5)CC4)ccc3=O)o2)c1C,-0.5%
CCCNC(=O)CCC(=O)N1Cc2cccc(OC)c2Oc2ncccc21,-0.5%
COc1cc(-c2nnc(SCCOc3ccc(C)c(Cl)c3)o2)cc(OC)c1OC,-14.5%
Cc1ccc(CNC(=O)c2cn(C)c3ccc(S(=O)(=O)N(C)C4CCCCC4)cc3c2=O)cc1,-1.8%
Cc1ccccc1-c1noc(CSc2nnc(Cc3ccccc3)n2-c2ccc(F)cc2)n1,-2.0%
Cc1cccc(C)c1NC(=O)C1C(c2ccccc2)=Nc2ccccc2N1C(=O)c1cnccn1 (centres undefined),-3.1%
COc1cc(/C=C/c2nc(C#N)c(NCCc3ccccc3)o2)cc(OC)c1OC,4.4%
CNC(=O)CSc1nnc(NC(=O)Nc2ccccc2)s1,-0.1%
Cc1ccc(CN2C(=O)c3ccccc3Sc3ccc(C(=O)OCc4ccco4)cc32)cc1,-1.3%
CCOc1ccc(OCC)c(NS(=O)(=O)c2c(C(=O)N3CCCCCC3)c(C)n(C)c2C)c1,0.7%
CCOC(=O)c1cccc(NC(=O)Cn2ncc3c4ccccc4n(Cc4ccccc4)c3c2=O)c1,-16.3%
COc1ccc(N2CCN(C(=O)c3cnc(N4CCCC4)nc3C)CC2)cc1,-6.5%
COc1cccc(C(=O)Nc2ccccc2SCc2cc(=O)c3cccc(C)c3[nH]2)c1,0.2%
Cc1csc2nc(-c3cccc(NC(=O)c4ccccc4Cl)c3)cn12,-4.3%
O=C(CN1C(=O)COc2ccc(S(=O)(=O)NC3CCCC3)cc21)NCc1ccccc1Cl,3.0%
Cc1noc(/C=C/c2ccccc2F)c1S(=O)(=O)N1CCC(C(=O)NCC(C)c2ccccc2)CC1 (centres undefined),143.4%
CC1CCCCN1CC(=O)N1CCCc2c1c(=O)oc1ccc(OCc3ccccc3)cc21 (centres undefined),-20.5%
Cc1cc2c(cc1C)N[C@]1(C[C@H]3CCC(=O)N4CC[C@@H](C1)[C@@H]34)C(=Nc1ccccc1C)N2,-0.2%
Cc1ccccc1Cc1c(C)nc2nc(SCC(=O)NCCc3ccc(Cl)cc3)nn2c1C,-6.6%
C#CCn1c(/C=C/c2ccc(Cl)cc2)nc2ccccc21,4.2%
Cc1nc2ccc(S(=O)(=O)CCC(=O)Nc3ccc(C(C)C)cc3)cc2s1,0.3%
Cc1ccc2nc(-c3ccc(Cl)cc3)c(Cc3cccc(Cl)c3)n2c1,4.8%
Cc1ccc(NCc2cccn2-c2nnc(N3CCC(C(=O)NCCc4ccc(Cl)cc4)CC3)s2)cc1,-0.2%
CCc1ccc2occ(CC(=O)N(Cc3ccc(N(C)C)cc3)C3CCS(=O)(=O)C3)c2c1 (centres undefined),-0.4%
Cc1cc(C)c2nccc(/C=C/c3ccc(N(C)C)cc3)c2c1,1.6%
CCCOc1ccccc1C(=O)Nc1ccc(-c2nc3ccc(C)cc3s2)cc1,4.2%
CCCCNC(=O)C1C(c2ccc(C(F)(F)F)cc2)=Nc2ccccc2N1C(C)=O (centres undefined),-2.6%
CC1CCC(NC(=O)CCc2cn(Cc3ccccc3Cl)c3ccccc23)CC1 (centres undefined),-11.8%
CCOc1ccccc1C(=O)N(Cc1ccccc1F)C1CCS(=O)(=O)C1 (centres undefined),0.8%
Cc1cn2c(=O)cc(COc3cc(C)c(Cl)c(C)c3)nc2s1,-1.3%
CCOc1ccc(CCNC(=O)CCSCc2ccc(Cl)cc2)cc1OCC,1.3%
CCN(C(=O)c1cc2c(Cl)nc3ccccc3c2s1)c1cccc(Cl)c1,-3.9%
Cc1ccc(Cn2cc(/C=C(/C#N)C(=O)Nc3cccc(Cl)c3)c3ccccc32)cc1,u
CCOC(=O)C1CCN(C(=O)Cn2c(=O)cc(C)c3c(C)nn(C)c32)CC1,u
COc1ccc(N2CCN(c3oc(-c4ccccc4C)nc3S(=O)(=O)c3ccccc3)CC2)cc1,-22.5%
COC1=CC(=O)OC(c2cccc(C#N)c2)C1 (centres undefined),0.4%
Cc1ccc(NC(=O)Nc2nnc(N3CCCC3)s2)cc1,1.5%
O=C(Cn1c(=O)nc(-c2ccccc2)c2ccccc21)Nc1cccc(C(F)(F)F)c1,-3.1%
COc1cc(CNc2ccc3[nH]c(=O)[nH]c3c2)cc(Cl)c1OCc1ccccc1F,-1.4%
CCN(CC)CCCNc1cc(-c2ccccc2)nc(C)n1,-9.9%
CCS(=O)(=O)N1Cc2cc(C(=O)NCCOC)nc(-c3cccc(-c4ccncc4)c3)c2[C@@H]1CCO,-1.7%
O=C(Cn1c(=O)n(Cc2ccc3c(c2)OCO3)c(=O)c2oc3ccccc3c21)Nc1ccccc1F,-10.5%
O=C1c2ccccc2NC(c2ccc3c(c2)OCO3)N1Cc1ccco1 (centres undefined),4.2%
O=C(Cn1nnnc1-c1ccccc1F)Nc1ccc(F)c(F)c1,0.7%
CCOC(=O)c1ccccc1NS(=O)(=O)c1c(-c2ccc(C)cc2)csc1C(=O)OC,-24.3%
Cc1ccc(Cl)cc1NC(=O)CN1C=NS(=O)(=O)c2ccccc21,-0.2%
CCCCN1C(=O)C(CC(=O)NCCCN(C)C)CC(C(=O)N2CCCCCC2)=C1C (centres undefined),-0.5%

Remaining list, next part
SMILES,ClpP mod
CC(C)C[C@@H]1Cc2[nH]c(=S)[nH]c(=O)c2[C@H](CCc2ccccc2)O1,-3.1%
CCCOc1ccc(-c2cc(C(F)(F)F)c(C#N)c(SCCC(=O)O)n2)cc1,u
CCCn1ccc2c(OCC(=O)Nc3ccc(F)cc3F)cccc2c1=O,-16.8%
CCN(CC)CCCNC(=O)c1ccc(-c2nc(CN3CCc4ccccc43)c(C)o2)cc1,-4.4%
Cc1ccc(CSc2nc(-c3ccccc3C)nc3c2Cc2c(CO)cnc(C)c2O3)cc1,-3.7%
Cc1c(Cl)cccc1NC(=O)C(=O)NCCc1csc(-c2cccc(F)c2)n1,-23.1%
CCc1cccc(C)c1Nc1nn2c(=O)c3ccccc3nc2s1,0.5%
CCN(C(=O)c1cccn(Cc2ccccc2C)c1=O)c1ccccc1,1.7%
CN1c2ccc(Cl)cc2-c2nc(SCC(=O)NCc3ccccc3)ncc2S1(=O)=O,-24.8%
CCOC(=O)c1scc(-c2ccc(C)cc2)c1S(=O)(=O)N1CCN(c2ccccc2F)CC1,1.3%
CCn1cc2nc(SCc3ccc(C)cc3)n(CCc3ccccc3)c(=O)c2n1,-2.2%
Cc1ccccc1CSc1nc2c(sc3ccccc32)c(=O)n1CCCOC(C)C,-2.4%
C(=Nc1ccc(/C=C/c2ccnc3ccccc23)cc1)c1ccco1,-0.5%
Cc1ccc(-c2nc3n(n2)C(c2ccccc2C)C=C(c2ccc(Cl)cc2)N3)cc1 (centres undefined),-6.8%
Cc1n[nH]c(C)c1S(=O)(=O)N(CC(=O)NC(C)c1ccccc1)c1ccc(C(C)C)cc1 (centres undefined),-0.8%
O=C(NC1CC(=O)N(c2ccc(F)cc2)C1)c1ccc2c(c1)OCO2 (centres undefined),-3.2%

High-throughput results deposited in PubChem BioAssay by National Center for Advancing Translational Sciences (NCATS).

Some of the compounds tested, so the mix of outcomes need not match the whole.
